# Screening results (PubChem BioAssay)
# Ba CapD inh: CapD enzyme inhibition | purified CapD enzyme, fluorescence intensity read-out; active compounds read low; some hits fall short of the stated cut | z-score (concentration not given with the values) | 140,000 tested, 0.23% active | AID 492967;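 active means z-score under -4 in either of two replicates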;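 further: stock transfer was 100 nL into about 40 µL; score is relative to mean and spread of the plate; one replicate is shown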
# AID504770: E. coli YBA685 growth inhibition, screen for V. cholerae RctB inhibitors | AID 504770 | E. coli YBA685 rctB-dependent plasmid, OD600 growth, 3 h; active compounds read low | 130,000 tested, 0.27% active | z-score (test concentration not listed);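 active means z-score under -2 on both plates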;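 further: wells of about 30 µL received 100 nL stock; score is relative to mean and SD of the test wells; the first replicate is given; strong numbers were not always called active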
# * marks the source's active call; other numbers are inactive results; · = no result given; & = joins results of further samples.
SMILES	Ba CapD inh	AID504770
COc1ccc(S(=O)(=O)Nc2cc(C(=O)N(C)Cc3ccccc3)ccc2N2CC3CC(C2)c2cccc(=O)n2C3)cc1 (stereo not given)	0.36	·
COC(=O)c1ccc(Cn2c(=O)c(=O)n(C(C)C)c3ccc(C(F)(F)F)cc32)cc1	-0.24	·
CCCCCCc1cc2c3c(c(=O)oc2cc1OCC(=O)c1ccc(Cl)cc1)CCCC3	0.39	·
CSc1nnc(NC(=O)c2nc(S(=O)(=O)Cc3ccc(F)cc3)ncc2Cl)s1	-2.5	-1.2
O=C(COC(=O)c1ccc2c(=O)n3c(nc2c1)CCCCC3)c1ccc(F)cc1	·	-1.8
Clc1ccc(-c2nnc(N3CCOCC3)o2)cc1	-0.24	1.8
COc1ccc(-c2cnc(N)s2)cc1	-0.23	-0.35
CSc1ncc(Cl)c(C(=O)Nc2ccc(S(=O)(=O)N3CCOCC3)cc2)n1	-0.21	-0.4
O=C(Cn1c(=O)cnc2ccccc21)N1CCN(c2ccccc2)CC1	·	-0.65
CCN(CC)S(=O)(=O)c1ccc(N=Nc2c(C)[nH]n(-c3ccccc3)c2=O)cc1	·	0.25
CCC(=O)N1CCc2cc(OC)c(OC)cc2C1COc1ccc(F)cc1 (stereo not given)	0.33	0.2
Cc1cccc(N2C(=O)c3sc4nccc(=O)n4c3C2=O)c1	-1.4	-0.55
CC(=O)Oc1ccccc1N(C(C)=O)S(=O)(=O)c1ccc(C)cc1	-0.39	-0.65
CCCc1cc(N2CCN(c3ccccn3)CC2)n2cnnc2n1	-0.36	0.3
Oc1[nH]c2ccccc2c1C=NCCc1ccccc1	-0.64	-0.15
COC(=O)c1ccc(CSc2nnc(COc3ccccc3Cl)n2C2CC2)o1	·	-0.05
Cc1cc(C)nc(Sc2ccc(NS(=O)(=O)c3ccc(C(C)(C)C)cc3)cc2)n1	0.19	·
COC(=O)C1=C(N)N(c2ccc(S(N)(=O)=O)cc2)C2=C(C(=O)CCC2)C1c1ccc(OC)cc1 (stereo not given)	-2.3	-0.6
Cc1cc(C)c(S(=O)(=O)N(C)c2ccccc2)c(C)c1	-0.12	-0.1
CC(C)(C)/C=N/NC(=O)c1nc(-c2c(F)cccc2Cl)no1	1.1	-0.65
CC(=O)N1CCN(C(=O)C23CC4CC(C)(CC(C)(C4)C2)C3)CC1	·	-0.1
Oc1ccccc1C1N(Cc2ccccc2)CCN1Cc1ccccc1	0.07	-1.6
CC(OC(=O)c1ccc(-n2cnnn2)cc1)c1ccccc1Cl (stereo not given)	·	-0.05
CCn1c(O)c(N=NC(=O)c2ccccc2O)c2ccccc21	-1.8	-0.55
O=C(c1ccc(Cn2cc(Br)cn2)cc1)N1CCN(C(=O)c2ccco2)CC1	-0.08	1.4
COc1cccc(-c2nn(-c3ccccc3)cc2C(=O)n2nnc3ccccc32)c1	0.96	-0.65
O=C1/C(=C\c2cccc(Cl)c2)Cc2ccccc21	0.29	1.8
Cc1ccc(S(=O)(=O)N2CC=C(C(=O)Nc3cccc(F)c3)CC2)cc1	0.17	0.9
CCOC(=O)c1oc2ccc(Br)cc2c1Cn1nc(C(=O)O)c2ccccc2c1=O	·	-0.1
COc1ccccc1NC(=O)CN1C(=O)/C(=C/c2cc(OC)c(OC)c(OC)c2)SC1=S	-0.59	·

# For convenience, 2 of the compounds above:
SMILES	Ba CapD inh	AID504770
CCOC(=O)c1oc2ccc(Br)cc2c1Cn1nc(C(=O)O)c2ccccc2c1=O	·	-0.1
COc1ccccc1NC(=O)CN1C(=O)/C(=C/c2cc(OC)c(OC)c(OC)c2)SC1=S	-0.59	·

# Further results follow.
SMILES	Ba CapD inh	AID504770
Cc1c(C(=O)NN)nn(-c2ccc(F)cc2)c(=O)c1C#N	·	1.8
Cn1c2c(c(=O)[nH]c1=O)C(C(F)(F)F)(C(F)(F)F)NC(=O)N2	-0.5	1.9
CCOC(=O)N1CCC(Nc2ncnc3c2cnn3-c2ccc(OC)cc2)CC1	2.9	·
N#Cc1cccc(NC(=O)COC(=O)Cc2ccccc2)c1	·	1.2
COc1ccc(N2C(=O)/C(=C/c3ccccc3OC)N=C2c2cccc(OC)c2)cc1	-0.69	·
c1cncc(NCc2ccco2)c1	·	-0.15
Cn1c(=O)c2c(O)c(C=NCc3ccccc3)c(=O)n(C)c2n(C)c1=O	-0.23	0.9
N#Cc1cc(-c2ccc(Cl)cc2)cnc1Sc1cccc(Cl)c1	0.33	·
CCCNC(=O)CCn1c(=S)oc2ccccc21	0.02	-0.1
COc1ccc2c(c1)C1(NNc3ccccc3O1)C(=O)N2 (stereo not given)	·	-11*
Nc1nc2c(ncn2COCCOC(=O)c2ccccc2)c(=O)[nH]1	-0.36	-1.1
Cc1cccc(Cc2cnc(NC(=O)CN3CSCC3=O)s2)c1	·	1.8
Cc1ccc2c(c1)C1CN(C)CCC1N2C(=O)c1ccccc1 (stereo not given)	0.33	2.5
COC(=O)CSC1=C(C#N)C(c2ccc(Cl)cc2Cl)CC(=O)N1 (stereo not given)	-0.72	-0.8
O=C(CS(=O)(=O)c1ccc(C(F)(F)F)cn1)N/N=C/c1ccc(OCc2ccccc2)cc1	-0.39	·
N#Cc1c(C(F)(F)F)cc(-c2cccs2)[nH]c1=S	6.7	·
O=C1CCC(=O)N1c1ccc(-c2nc3ccccc3c(=O)o2)cc1	0.14	-0.3
CSc1nc2ccc3nc(NC(=O)c4ccccc4C)sc3c2s1	0.065	-0.6
Cc1ccccc1C(N)CC(=O)O (stereo not given)	0.055	0.7
CC(C)Oc1ccc(C(=O)NCC(=O)Nc2ccccc2N2CCOCC2)cc1	·	-1.1
OCCN1CCN(CCCN2c3ccccc3Sc3ccc(C(F)(F)F)cc32)CC1	-1.4&0.05&-2	0.65
CC1=NN(c2ccccc2)C(=O)C1C(=O)c1ccc([N+](=O)[O-])cc1 (stereo not given)	-0.48	·
Cc1ccc(C)n1-c1ccccc1C(=O)O	-1	1.2
Cc1ccc(-n2[nH]c(C)c(C=O)c2=O)cc1C	-0.32	-0.65
O=C(c1ccccc1)c1nn(-c2ccc(Cl)cc2)c(=O)cc1C(F)(F)F	0.86	·
CCCSc1nnc2n(Cc3ccc(OC)cc3)c(=O)c3c(n12)-c1ccccc1CC31CCCCC1	-0.26	·
O=C(Nc1ccccc1)Oc1ccc2sc(=O)oc2c1	·	2.5
O=C1N=c2ccc(Br)cc2=C1c1sc(=S)n(-c2cccc(Br)c2)c1O	2.9	-1.1
N=C1C(c2nc3ccccc3[nH]2)=C(O)CN1NC(=O)COc1cccc(F)c1	·	0.75
CCOC(=O)c1cn(CC(=O)Nc2cccc(OC)c2)nn1	-0.09	0.15

# Retrieved by compound from above (4):
SMILES	Ba CapD inh	AID504770
Nc1nc2c(ncn2COCCOC(=O)c2ccccc2)c(=O)[nH]1	-0.36	-1.1
O=C1N=c2ccc(Br)cc2=C1c1sc(=S)n(-c2cccc(Br)c2)c1O	2.9	-1.1
CSc1ncc(Cl)c(C(=O)Nc2ccc(S(=O)(=O)N3CCOCC3)cc2)n1	-0.21	-0.4
Cc1ccccc1C(N)CC(=O)O (stereo not given)	0.055	0.7

# The list continues.
SMILES	Ba CapD inh	AID504770
COc1ccc(C(=O)NC(C(=O)Nc2ccc3c(c2)OCO3)C(C)C)cc1 (stereo not given)	·	-0.3
O=C(OCc1ccccc1Oc1ccccc1)c1ccccn1	·	-0.15
O=C1CCCC2=C1C(c1cccc(O)c1)C1=C(N2)c2ccccc2C1=O (stereo not given)	-0.38	1.3
NC(=NC(=O)c1ccc(Cl)cc1Cl)N1CCCC1	-0.48	0.8
Cc1ccoc1C(=O)Nc1cccc(Oc2ccccc2)c1	-0.14	-1
Cc1cc(C)nc(NS(=O)(=O)c2ccc(Nc3ncnc(N)c3[N+](=O)[O-])cc2)n1	-0.96	·
COc1ccc(C2(O)CN(c3cccc(C)c3C)C3=[N+]2CCCS3)cc1 (stereo not given)	0.02	·
Cc1cc(C)cc(NS(=O)(=O)c2ccc3c(c2)C(C(C)C)C(=O)N3)c1 (stereo not given)	0.43	-0.05
O=C(N=Nc1c(O)[nH]c2ccccc12)c1ccc2c(c1)OCO2	-0.28	-0.15
CCc1ccc(C(=O)COC(=O)C2CSC3(C)CCC(=O)N23)cc1 (stereo not given)	·	1.3
CCOc1ccc2c(c1)C(=C1SC(C(=O)OC)=C(C(=O)OC)S1)C(=S)C(C)(C)N2C(=O)c1sc2ccccc2c1Cl	-0.61	·
CCN1C(=O)/C(=C/c2ccccc2O)SC1=S	-1.5	0.9
COCC(O)CNc1ccccc1 (stereo not given)	·	-0.7
CCOc1ccccc1NC(=O)c1c(Cl)nc2sccn12	0.005	0.55
COc1ccccc1NC(=O)Nc1ccccc1C(=O)N1CCC(c2nc(-c3ccncc3)no2)CC1	0.04	·
O=C(Nc1nc2c(cc3c4c(cccc42)CC3)s1)c1ccc(S(=O)(=O)N2CCCC2)cc1	-0.24	·
COC(=O)N/N=C1\CCCCc2ccccc21	·	-0.65
Cc1ccc(-c2noc(Cn3nc(C(=O)O)c4ccccc4c3=O)n2)cc1	·	-0.2
O=C(NCc1nc2ccccc2[nH]1)c1cccs1	-0.08	0.3
O=C(CN1C(=O)S/C(=C\c2ccc(O)cc2)C1=O)c1ccccc1	·	1
O=C(OCc1ccccc1)c1cnc(Cl)c(Cl)c1	-0.3	2.2
CCOC(=O)c1c(NC(=O)C(C)Sc2nnc(CNC(=O)c3ccco3)n2C)sc2c1CCCC2 (stereo not given)	-0.38	·
CC1CCN(S(=O)(=O)c2ccc3c(c2)CCCC(=O)N3)CC1	0.58	-0.9
CCOC(=O)N1CCc2c(sc3nc4n(c(=O)c23)N=C(c2ccc(OC)cc2)CS4)C1	0.035	0.25
COCc1cc(C)nc2sc(C(=O)N3CCc4ccccc43)c(N)c12	-0.4	-0.95
CCOc1ccc(N2CC(C(=O)NC3CC(C)(C)NC(C)(C)C3)CC2=O)cc1 (stereo not given)	·	1.3
O=S(=O)(Nc1ccc2c(c1)OCO2)c1ccccc1C(F)(F)F	·	0
Cn1nccc1/C=C(/C#N)S(=O)(=O)c1ccccc1	0.57	-1
O=[N+]([O-])c1cc(C(F)(F)F)cc([N+](=O)[O-])c1NCCC1CC1(Cl)Cl (stereo not given)	-1.1	·
N/C(=N\OC(=O)c1ccccc1)c1ccc2c(c1)CCO2	0.64	-0.7
O=S(=O)(c1ccc(-c2ccon2)s1)N(Cc1ccccn1)Cc1ccccn1	0.02	-0.75
CS(=O)c1ccc(NC(=O)c2cccc(C(F)(F)F)c2)cc1C#N (stereo not given)	-1.4	·
O=C(Nc1ccc(N2CCCCC2)cc1)c1ccc(F)cc1Cl	-0.025	0.1
Cc1cc(C)cc(Nc2cc(C(=O)NC3CCCC3)c3ccccc3n2)c1	0.71	2
CCN(c1ccc(F)cc1)S(=O)(=O)c1ccc2[nH]cc(C(=O)N3CCc4ccccc4C3)c(=O)c2c1	0.7	·
CC(=O)NCCC(=O)Nc1ccc(C(F)(F)F)cc1	·	-0.2
Cc1cc2cc(CNC(=O)C(C)Oc3ccccc3)ccc2[nH]1 (stereo not given)	-0.61	-0.85
CN(C(=O)Cn1cc(C#N)c2ccccc21)c1ccccc1	1.7	0
O=C(C1CCN(S(=O)(=O)c2ccccc2)CC1)N1CCc2ccccc21	0.54	-0.6
O=C(NCC1CCCO1)c1cc2cccc3c2n(c1=O)CC3 (stereo not given)	26	·

# Part of the list above in order of heavy-atom count, high to low:
SMILES	Ba CapD inh	AID504770
CS(=O)c1ccc(NC(=O)c2cccc(C(F)(F)F)c2)cc1C#N (stereo not given)	-1.4	·
O=C(Nc1ccc(N2CCCCC2)cc1)c1ccc(F)cc1Cl	-0.025	0.1
CC(=O)NCCC(=O)Nc1ccc(C(F)(F)F)cc1	·	-0.2

# The listing continues.
SMILES	Ba CapD inh	AID504770
CCCN1C/C(=C\c2ccc(N(C)C)cc2)C(=O)/C(=C/c2ccc(N(C)C)cc2)C1	0.15	0.6
COc1ccc(O)c(C(=O)c2cnn(C(=O)CN3CCCC3=O)c2)c1	·	0.15
COC(=O)c1cccc2c1NC(c1cccnc1)C1CC=CC21 (stereo not given)	·	-0.95
CCOC(=O)CCc1c(C(=O)OCC)[nH]c2ccccc12	1.3	0.1
O=C(Nc1ccccc1)OCCOc1ccccc1	0.14	1.1
CC(=O)Nc1ccccc1OC(=O)c1cccc(C)c1	-0.42	-0.9
CCN(Cc1ccccc1)C(=O)Cn1ncc2c3ccccc3n(Cc3c(C)cc(C)cc3C)c2c1=O	0.08	-0.3
COC(=O)C1=C(C(=O)OC)SC2(S1)C(C(=O)OC)=C(C(=O)OC)SC1=C2c2cc(C)ccc2N(C)C1(C)C	-0.72	·
CC(C)(C)c1ccc(-c2nc(=O)[nH]n2-c2ccccc2)cc1	3.4	0.95
CC1CCN(C(=O)COc2ccc(C(C)C)cc2)CC1	·	-0.3
O=c1oc(-c2ccco2)nc2sc3c(c12)CCCCC3	-0.38	·
N#Cc1cccc(/C=N/NC(=O)c2cc3ccccc3cc2O)c1	-0.59	·
O=C(Nc1ccccc1)C1CC(O)CN1C(=O)Oc1ccccc1 (stereo not given)	6.1	·
COc1ccc(-c2c[n+](CC(=O)c3ccc(Cl)cc3)c3n2CCCCC3)cc1	0.38	·
Cc1[nH]c(=O)[nH]c(=O)c1N(C)C	0.26	0.6
CCN(CC)S(=O)(=O)c1ccc2oc(=S)n(CN(C(C)C)C(C)C)c2c1	·	-0.25
CS/C(Nc1ccccc1C)=C(\C#N)C(=O)NCc1cccs1	0.26	·
Cc1cccn2c(=O)c3cc(C#N)c(=O)n(Cc4ccco4)c3nc12	41	0.1
CCN(CC)S(=O)(=O)c1ccc(N2Cc3ccccc3C2=N)cc1	·	0
CCn1nc(C)c(Br)c1C(=O)Oc1ccc(Cl)cc1	8.8	0.85
